# YopH PTP inh: YopH tyrosine phosphatase inhibitors, primary screen, biochemical, fluorescence Ex485/Em525 | 0.16% of 140,000 active | inhibition, %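 (about 10 µM by stock and volumes)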;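 active = inhibition of 50% or more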;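 also: controls were vehicle for no effect and minimum signal wells for full effect; inactives centre near -20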
# RecA splice inh: Mtb RecA intein splicing inhibitors, primary screen, biochemical, fluorescence, HTS; inhibition, %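 (about 9 µM by stock and volumes)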; 0.75% of 290,000 active; Protein RecA (Mycobacterium tuberculosis (strain ATCC 25618 / H37Rv)), P9WHJ3; cell-free RecA intein splicing; in the data active = inhibition above about 30%; inconclusive = no clear call, values can overlap the other calls;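 also: 0% = vehicle wells and 100% = reference inhibitor control wells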
# Target sequence (P9WHJ3 whole entry, looked up, canonical isoform): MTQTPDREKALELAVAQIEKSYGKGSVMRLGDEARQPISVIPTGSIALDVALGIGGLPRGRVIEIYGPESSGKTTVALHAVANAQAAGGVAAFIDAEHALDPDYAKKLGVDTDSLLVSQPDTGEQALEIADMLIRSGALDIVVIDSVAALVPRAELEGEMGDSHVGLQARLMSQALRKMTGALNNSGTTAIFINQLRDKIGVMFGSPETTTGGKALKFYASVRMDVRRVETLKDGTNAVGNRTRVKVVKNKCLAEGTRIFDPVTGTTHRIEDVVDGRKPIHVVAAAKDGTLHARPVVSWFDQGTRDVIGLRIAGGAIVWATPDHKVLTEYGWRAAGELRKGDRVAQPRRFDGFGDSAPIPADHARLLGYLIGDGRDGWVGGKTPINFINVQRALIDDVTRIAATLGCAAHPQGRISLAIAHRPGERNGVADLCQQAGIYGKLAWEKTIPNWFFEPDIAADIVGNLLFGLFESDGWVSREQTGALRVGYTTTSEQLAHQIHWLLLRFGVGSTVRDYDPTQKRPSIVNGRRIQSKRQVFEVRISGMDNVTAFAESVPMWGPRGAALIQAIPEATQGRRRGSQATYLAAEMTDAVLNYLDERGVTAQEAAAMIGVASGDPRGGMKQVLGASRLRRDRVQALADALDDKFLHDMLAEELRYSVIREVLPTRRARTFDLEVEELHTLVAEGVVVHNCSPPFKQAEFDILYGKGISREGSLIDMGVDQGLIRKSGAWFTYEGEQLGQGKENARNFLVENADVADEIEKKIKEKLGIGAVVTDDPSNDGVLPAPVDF
# Mtb betalactam: beta-lactam sensitization of Mtb H37Rv, H37Rv; 0.27% of 330,000 active; inhibition, % at 25 µM; AID 434955, 2010; M. tuberculosis H37Rv growth with meropenem, percent inhibition; hits of this screen are not shown here;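 active = about 74% or more and at least 40 points above the plate without the antibiotic, then above 30% in a dose series; inconclusive = first-round hits that could not be retested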;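 also: growth measured after seven days incubation then overnight dye step; 0% = bacteria only wells and 100% = bacteria with antibiotic; twin plates without the antibiotic show which effects depend on it; some results filed as inactive read as strong as hits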
# Mtb growth: M. tuberculosis H37Rv growth inhibitors, H37Rv strain (AID 1626) | M. tuberculosis H37Rv growth inhibition; higher % means a stronger effect | inhibition, % at 10 µM, or IC50 in µM where a hit was titrated | 0.95% of 220,000 active;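 active = confirmed in a dose series; inconclusive = inhibition above 80% but not taken into the dose series; inactive = below 80% or under 30% at every dose of the series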;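 also: bacteria incubated seven days before Alamar blue readout; 0% = bacteria only wells and 100% = bacteria with antibiotic wells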
# Arbovirus anti: antivirals against arbovirus infection, primary screen, cell-based, full library, 10K replicate subset; arbovirus infection cell-based antiviral screen; inhibition, % at 10 µM; 0.37% of 200,000 active;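 active = inhibition from about 30%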;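 also: bluetongue infection of BSR cells; cell survival read as ATP light after 72 h; 0% = infected wells without compound and 100% = uninfected wells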
# Arbovirus anti repeat: second read-out of Arbovirus anti, no call of its own (marks repeat the call); inhibition, %; measured here: 10K subset replicate screen; many hits read low in the repeat;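 first of two repeat runs on a subset; 0% = infected and 100% = uninfected wells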
# * marks the source's active call; other numbers are inactive results; ? = inconclusive; . = no result given.
SMILES,YopH PTP inh,RecA splice inh,Mtb betalactam,Mtb growth,Arbovirus anti,others
O=C(NCC1(O)CCCCC1)C1CCC(=O)N(Cc2cccc(C(F)(F)F)c2)C1 (centres undefined),.,1.0,-12,.,.,
COc1ccccc1/C=N/NC(=O)COCC(=O)N/N=C/c1ccccc1OC,.,-1.5,-2,3%,-1,
O=C1c2cccc([N+](=O)[O-])c2C(=O)N1c1cccnc1,.,-4.0,-4,-3%,-1,
O=C(NCCN1C(=O)S/C(=C\c2cccc(Cl)c2Cl)C1=O)C1=COCCO1,.,2.9,-9,.,.,
COc1ccc(N2CCN(CC(O)COC(C)(C)C)CC2)cc1 (centres undefined),.,-3.3,-3,-11%,3,
CCOC(=O)c1c(C)[nH]c(C)c1S(=O)(=O)N1c2ccccc2CC1C (centres undefined),.,1.1,2,.,.,
O=S(=O)(c1ccc(F)cc1)N1CCCN(Cc2c(F)cccc2F)CC1,.,-0.2,-1,.,.,
CC(C)c1cn(C2OC(COC(=O)c3ccccc3)C(OC(=O)c3ccccc3)C2OC(=O)c2ccccc2)c(=O)[nH]c1=O (centres undefined),.,-1.2,-6,-5%,.,
CCC(=O)c1c[nH]c(C(=O)NCc2cccs2)c1,.,0.3,-4,.,.,
COc1ccc(C(C)=O)cc1CSc1nnc(Nc2ccccc2C)s1,-12,4.0,3,5%,4,
CCCn1c(C)cc(C(=O)COc2ccc(C)nc2[N+](=O)[O-])c1C,-11,-1.9,0,-2%,-4,
CCc1cccc(N(CC(=O)NCc2ccc(F)cc2)C(=O)c2csnn2)c1,.,1.0,-2,-1%,-5,
O=C(CCS(=O)(=O)c1ccccc1)Nc1nc2ccc(F)cc2s1,.,-2.3,2,.,.,
O=C(NCc1ccccc1Cl)C1CCN(S(=O)(=O)N2CCCCCC2)CC1,-28,-1.0,-7,-5%,-6,
CC(C)CCN1CCN(Cc2nc3ccccc3s2)CC1CCO (centres undefined),.,3.9,1,-7%,4,
CCCC(CCC)C(=O)NCCN1CCOCC1,-33,1.3,1,4%,12,
FC(F)(F)c1nnc2ccc(-n3ccnc3)nn12,-15,1.0,-3,3%,3,Arbovirus anti repeat=-3
CC(C)c1nnc(SCC(=O)NCCC2=CCCCC2)n1N,0,1.1,-13,2%,-1,
O=C(NCCCN=C1NS(=O)(=O)c2ccccc21)c1ccc(F)cc1,.,0.3,?,.,.,
COc1cc(C#N)ccc1OCC(=O)c1ccc2c(c1)OCCO2,4,1.4,-6,-2%,-8,
CCCN(C(=O)CCNC(=O)Cn1cnc2ccccc2c1=O)c1cccc(C)c1,.,2.5,-4,.,.,
CC(NC(=O)c1ccc(N(C)C)cc1)C(c1cccs1)N1CCN(C)CC1 (centres undefined),2,-0.3,5,-2%,7,
CC1(C)Cc2c(cnn2-c2ccc(F)cc2)C(NC(=O)c2ccoc2)C1 (centres undefined),.,2.7,0,.,.,
CN1CCN(Cc2nc3c([nH]2)c(=O)[nH]c(=O)n3C)CC1,-19,1.9,0,4%,0,
O=C(O)CC1S/C(=N\N=C/c2ccccc2O)N(c2ccc(O)cc2)C1=O (centres undefined),.,-2.4,3,1%,0,
COc1cc(N=C2C(=O)N3CCCc4cccc2c43)cc(OC)c1,-25,8.4,66,90%,-8,
COc1cccc(N2CCN(c3nc(C)c(C)c(=O)[nH]3)CC2)c1,.,-4.3,-1,.,.,
CC(C(=O)O)N1C(=O)/C(=C/c2cccn2C)SC1=S (centres undefined),-11,.,-2,3%,-3,
O=C(Nc1nnc(Cc2ccccc2)s1)C1CCN(C(=O)c2ccco2)CC1,.,3.1,6,.,.,
CCOC(=O)C1(CC2CCCCO2)CCN(Cc2ccccc2-c2ccco2)CC1 (centres undefined),.,1.9,-1,0%,3,

# Molecules shown so far that contain an aryl methoxy group (six):
SMILES,YopH PTP inh,RecA splice inh,Mtb betalactam,Mtb growth,Arbovirus anti,others
COc1ccccc1/C=N/NC(=O)COCC(=O)N/N=C/c1ccccc1OC,.,-1.5,-2,3%,-1,
COc1ccc(N2CCN(CC(O)COC(C)(C)C)CC2)cc1 (centres undefined),.,-3.3,-3,-11%,3,
COc1ccc(C(C)=O)cc1CSc1nnc(Nc2ccccc2C)s1,-12,4.0,3,5%,4,
COc1cc(C#N)ccc1OCC(=O)c1ccc2c(c1)OCCO2,4,1.4,-6,-2%,-8,
COc1cc(N=C2C(=O)N3CCCc4cccc2c43)cc(OC)c1,-25,8.4,66,90%,-8,
COc1cccc(N2CCN(c3nc(C)c(C)c(=O)[nH]3)CC2)c1,.,-4.3,-1,.,.,

# Next part
SMILES,YopH PTP inh,RecA splice inh,Mtb betalactam,Mtb growth,Arbovirus anti,others
COC(=O)C(C#N)c1nc2ccccc2nc1N1CCCC1 (centres undefined),-28,-5.7,2,6%,-3,
CC(=O)c1c(C)[nH]c(C(=O)CSc2nnc(-c3ccco3)n2Cc2ccccc2)c1C,-53,0.4,-8,5%,-10,
COc1ccc(NC(=S)N2CCN(Cc3ccco3)CC2)c(OC)c1,-27,1.6,-2,.,-8,
Cc1cccc(C(C)C)c1NC(=O)C1CN(S(=O)(=O)c2ccccc2)CCN1S(=O)(=O)c1ccccc1 (centres undefined),-5,2.6,5,4%,-4,
O=c1[nH]c(C2CCN(S(=O)(=O)c3ccccc3)CC2)nc2c1nnn2Cc1cccc(Cl)c1,.,-1.4,1,.,.,
Cn1c(=O)c2c(nc(N3CCc4ccccc4C3)n2C)n(C)c1=O,.,-1.0,2,-6%,2,
O=C(OCCCN1C(=O)c2ccccc2C1=O)c1ccco1,-34,5.2,-5,-7%,6,
O=C(N/N=C\c1cccc(Cl)c1)c1n[nH]c2c1CCCC2,-9,.,-4,4%,0,
CC1(C)Cc2c(sc(NC(=O)COc3cccc4ccccc34)c2C#N)C(C)(C)N1,.,2.3,-7,2%,.,
COc1ccc(N(CC(=O)N2CCc3ccccc3C2)S(C)(=O)=O)cc1OC,2,1.5,-1,-11%,3,

# 4 consecutive compounds out of the list so far, for reference:
SMILES,YopH PTP inh,RecA splice inh,Mtb betalactam,Mtb growth,Arbovirus anti,others
O=C(OCCCN1C(=O)c2ccccc2C1=O)c1ccco1,-34,5.2,-5,-7%,6,
O=C(N/N=C\c1cccc(Cl)c1)c1n[nH]c2c1CCCC2,-9,.,-4,4%,0,
CC1(C)Cc2c(sc(NC(=O)COc3cccc4ccccc34)c2C#N)C(C)(C)N1,.,2.3,-7,2%,.,
COc1ccc(N(CC(=O)N2CCc3ccccc3C2)S(C)(=O)=O)cc1OC,2,1.5,-1,-11%,3,

# Following part
SMILES,YopH PTP inh,RecA splice inh,Mtb betalactam,Mtb growth,Arbovirus anti,others
O=C(Nc1ccc(S(=O)(=O)N2CCCC2)cc1)C1CCN(S(=O)(=O)c2ccc(F)cc2)CC1,.,1.5,4,.,.,
O=C(O)c1cccc(NC(=S)NC(=O)c2cncc(Br)c2)c1,.,-1.3,5,.,.,
COc1cc(/C=C(\C#N)C(=O)N2CCOCC2)ccc1OCc1ccccc1,.,1.9,6,2%,-1,
O=C(CCC(=O)N1CCC2(CC1)OCCO2)Nc1nnc(C(F)(F)F)s1,-11,-3.1,4,-10%,10,
COc1ccc(C)cc1NC(=O)Nc1ccncc1,.,-0.4,2,.,.,
C=CCn1c(O)c(C(C)=NCCCN2CCOCC2)c(=O)[nH]c1=O,-3,-1.2,-2,-1%,3,
Cc1ccc(CCNC(=O)CCCn2nc(C)c3c(C)n(-c4ccc(C)cc4)nc3c2=O)cc1,.,0.8,-4,.,.,
O=C(NCCN1CCOCC1)C1(C(F)(F)F)C/C(=C\Cc2ccccc2)CCCO1 (centres undefined),.,1.5,-4,-4%,.,
CCOC(=O)c1c(C)n(C)c2ccc(OC)c([N+](=O)[O-])c12,.,-1.3,-1,-7%,-16,
CCOC(=O)c1sc(NC(=O)CC)nc1C,.,-2.6,0,3%,2,
CC(=O)Nc1ccc(NC(=O)CC23CC4CC(CC(C4)C2)C3)cc1,.,-1.5,-5,.,.,
O=C(COC(=O)c1cccc([N+](=O)[O-])c1)NC1CCCC1,.,-0.8,1,.,.,
CCCOc1ccc(/C=N/NC(=O)C2CCCN2S(=O)(=O)c2ccc(Cl)cc2)cc1 (centres undefined),7,2.3,10,8%,-3,
CCOCC(=O)Nc1ccc(C(=O)Nc2ccccc2Cl)cc1,.,-0.6,-2,-3%,-6,
CNC(=O)COc1coc(CN2CCN(c3ccc(OC)cc3)CC2)cc1=O,.,-5.2,2,.,.,
CCCc1cc(CN(C)C(=O)CC2C(=O)NCCN2Cc2ccccc2C)[nH]n1 (centres undefined),.,-6.9,-2,.,.,
O=C(NCc1cccnc1)Nc1cccc(C(F)(F)F)c1,.,0.4,-4,.,.,
COc1cc(C2C(S(=O)(=O)c3ccccc3)CON2C)ccc1OCc1ccc(F)cc1 (centres undefined),.,-1.1,-9,-1%,7,
CCOC(=O)c1ccc(Nc2nc(N3CCOCC3)nc(N3CCOCC3)n2)cc1,.,-0.5,5,.,.,
Cc1ccccc1-c1noc(-c2cccs2)n1,-22,3.2,0,9%,-2,Arbovirus anti repeat=-5
CCn1c(COc2ccc(C)cc2)nnc1SCC(=O)Nc1ccc2c(c1)OCCO2,-55,-1.3,-17,-5%,-7,
COc1cccc(/C=N/n2cnc3c(cnn3-c3ccccc3)c2=O)c1,.,-0.5,-3,1%,.,
CC(=O)NC(NC(=S)Nc1c(C)n(C)n(-c2ccccc2)c1=O)C(Cl)(Cl)Cl (centres undefined),.,.,.,0%,7,
COCCN(C(=S)Nc1cc(C)cc(C)c1)C(C)c1cccs1 (centres undefined),.,-0.1,1,5%,5,
CC(C)n1cnc2cc(NCc3ccccn3)ccc21,-5,-0.7,10,8%,-9,
O=C(CSCc1cc(=O)n2nc(C3CC3)sc2n1)Nc1ccccc1Cl,.,1.7,-8,.,.,
CC1(C)CC(CC(=O)Nc2ccccc2[N+](=O)[O-])C(=O)O1 (centres undefined),-7,0.9,4,7%,-3,
CN1CN=C(NS(=O)(=O)c2ccc([N+](=O)[O-])cc2)NC1,.,-4.9,-1,.,.,
Cc1cc(OCC(=O)Nc2cccnc2)c2c(C)cc(=O)oc2c1,.,-0.7,-5,.,.,
COc1ccc(CC(=O)Nc2ccc(S(=O)(=O)Nc3cc(C)on3)cc2)cc1OC,-9,.,-2,-4%,0,
O=C(CN1CCN(CC(=O)Nc2ccccc2C(F)(F)F)CC1)Nc1ccccc1F,-11,2.3,0,0%,2,
O=C(Nc1ccc(F)cc1)OCCOc1ccc([N+](=O)[O-])cc1,.,0.4,-3,-2%,.,
Cc1c(C#N)c(N=CN(C)C)c(C(=O)c2ccc(Br)cc2)n1-c1ccccc1,-24,2.6,5,4%,-1,
Cc1ccc(N(CC(=O)N/N=C/c2ccc(OCC(N)=O)cc2)S(C)(=O)=O)cc1Cl,.,-1.2,-9,0%,0,
Cc1ccccc1NS(=O)(=O)c1ccc2c(c1)n(C)c(=O)n2C,.,-0.1,-1,-3%,-10,
Cc1ccccc1NCc1ccc(O)c2ncccc12,-32,-9.2,67,5%,-9,
O=C(CN1CCN(CC(=O)Nc2ccc(Cl)cc2)CC1)Nc1ccc(F)cc1,.,1.3,5,.,.,
O=C(NCc1csc(-c2cccs2)n1)C1CC1,.,-1.1,0,-10%,.,
COc1ccc(CCNS(=O)(=O)c2ccc(Br)cc2)cc1OC,.,0.8,2,.,.,
COc1ccc(Cl)cc1S(=O)(=O)Nc1ccc2c(c1)n(C)c(=O)n2C,.,-9.4,5,.,.,
CC(C)CC(COCc1ccc(Cl)cc1)N1CCN(C(=O)c2ccc(Cl)cc2Cl)CCC1=O (centres undefined),-7,22,2,9%,-21,
CS(=O)(=O)c1ccc2nc(NC(=O)c3ccc(NS(=O)(=O)c4cccc([N+](=O)[O-])c4)cc3)sc2c1,.,-2.0,0,35%,.,
CCn1nc(C)c(CN2CCC(n3nccc3NC(=O)Cc3ccccc3)CC2)c1C,.,-2.1,-3,.,.,
CCOC(=O)c1c(N)sc(-c2ccccc2)c1C,-22,11,-5,4%,-5,
COCCn1nnnc1C(c1ccccn1)N1CCN(c2cccc(C)c2C)CC1 (centres undefined),-16,0.6,5,-5%,4,
COc1cc(C(=O)Nc2cc(-c3nc4cc(C)ccc4o3)ccc2C)cc(OC)c1OC,6,8.1,22,-6%,-1,Arbovirus anti repeat=-3
CCOc1ccc2c(C)cc(=O)oc2c1OCC,-47,0.0,6,4%,1,
NC(=O)c1ccc(N2CCC(C(N)=O)CC2)c([N+](=O)[O-])c1,.,0.5,-5,8%,.,
O=S(=O)(Nc1cccc(CCc2ccccn2)c1)c1cc(Cl)ccc1Cl,.,7.5,-9,2%,.,
CC(OC(=O)Cc1ccsc1)C(=O)Nc1ccc(Cl)cn1 (centres undefined),.,0.5,0,.,.,

# Not all compounds are listed, so the mix of outcomes need not match the whole.
